# Rango-impB inh: inhibitors of Rango-importin beta complex formation; Q14974; Rango CFP/YFP FRET sensor + importin beta, 45 min; hit rate 0.031% among 340,000; Potency, µM (top dose mostly 92.2 µM), for inactives: at the highest dose inhibition of complex formation; active = rising FRET ratio curve, often small or poorly fitted; inconclusive = mostly compound fluorescence or quenching in the first reads; inactive = flat curves in all reads;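 further: potency means the concentration at half of the fitted maximal effect; 0% = DMSO wells and 100% = buffer wells lacking importin beta; nearly all actives have a fitted effect of over 15% in size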
#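 FRET biosensor Rango (snurportin 1 IBB between N-terminal EYFP and C-terminal Cerulean), 50 nM in PBS/1 mM DTT/0.02% Tween-20/0.1% BSA, preincubated 5 min RT with compound; 0.125 microM importin beta added, 45 min RT, CFP/YFP FRET ratio read.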
# GLA inh pH 4.5: alpha-galactosidase A (human) inhibition, pH 4.5; purified enzyme, 4-MU-alpha-Gal fluorescence, pH 4.5; AID 1467; P06280; activity change, negative = inhibition, % at 105 µM; 230,000 tested, under 10 active; inconclusive = small, poorly fitted or top-dose-only inhibition, or a rising curve; inactive = flat fitted curve, though single readings scatter; no compound was filed as active;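 further: 0% = full activity with enzyme and -100% = basal without enzyme; dose as in the result columns while the protocol names 77 µM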
# Target sequence (P06280 whole entry, looked up): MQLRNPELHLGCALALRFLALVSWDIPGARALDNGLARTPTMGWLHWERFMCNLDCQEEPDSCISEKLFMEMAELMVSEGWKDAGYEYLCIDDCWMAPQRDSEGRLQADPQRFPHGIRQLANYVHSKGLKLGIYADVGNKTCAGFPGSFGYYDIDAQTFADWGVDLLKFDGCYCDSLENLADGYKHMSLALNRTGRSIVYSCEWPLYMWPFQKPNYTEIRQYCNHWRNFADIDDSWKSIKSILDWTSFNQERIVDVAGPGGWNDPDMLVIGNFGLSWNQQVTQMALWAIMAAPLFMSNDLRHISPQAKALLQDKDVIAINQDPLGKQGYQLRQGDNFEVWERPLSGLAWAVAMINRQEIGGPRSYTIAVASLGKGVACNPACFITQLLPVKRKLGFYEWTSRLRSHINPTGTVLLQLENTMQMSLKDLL
# Rango release inh: inhibition of RanGTP-driven Rango-importin beta dissociation. Biochemical FRET Rango-importin beta, RanGTP-induced dissociation. hit rate 0.071% among 340,000. Potency, µM (top dose mostly 46.1 µM), without a hit: at the top dose activity change, negative = inhibition. AID 540253. O95149+P62826; active means falling FRET ratio curve, often poorly fitted, with flat reads before Ran was added; inconclusive means other falling curves, or compound fluorescence or quenching; inactive means flat or rising ratio curve;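 further: potency means the concentration at half of the fitted maximal effect; % of control where 0% means no effect; nearly all actives have a fitted effect of over 45% in size; -100% = wells without RanGTP and RCC1; the record marks most hits as doubtful in a second field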
#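 FRET read at 45 min, room temperature: inhibitors block the CFP/YFP signal rise when RanGTP (0.6 uM Ran, 2 mM GTP, 0.2 uM RCC1) frees Rango (0.1 uM) from importin beta (0.25 uM). Pre-read after 5 min compound exposure flags interference.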
# miR-21 reporter: raises the signal of a miR-21 reporter. HeLa miR-21 FLuc reporter, luciferase, 48 h. Potency, µM (titrated, usually from 38.3 µM), for the others: top-dose reporter change, positive = more light. 340,000 tested, under 10 active; active = well fitted rising curve with a large enough effect; inconclusive = small, poorly fitted or top-dose-only effect; inactive = no such curve, though single readings can be large or run the other way;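 further: % of control where 0% means no effect; miR-21 action dims this reporter so a rising signal means less miR-21 action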
#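 HeLa cells endogenously expressing miR-21, stably carrying CMV-driven firefly luciferase with a downstream miR-21 binding site, 2000 cells/well. Titrations up to approximately 40 uM, 48 hours; luciferase luminescence read.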
# Numbers without * were called inactive; ? = inconclusive; nt = no result given; & = joins results of further samples. This is a subset (hit frequency here may not be typical).
Rango-impB inh	GLA inh pH 4.5	Rango release inh	miR-21 reporter	compound
1.0%	nt	-1%	2%	COc1ccc([N+](=O)[O-])cc1C(=O)C(=O)c1ccccc1
1.0%	4	3%	-8%	O=C(CCCc1ccccc1)NCCC1=CCCCC1
1.1%	nt	-6%	3%	CC(C)n1c(SCC(=O)N2CCN(C)CC2)nc2c1c(=O)n(C)c(=O)n2C
?	nt	15%	-4%&-14%	CCC(C)NC(=O)c1ccc2nc(Cc3ccc(OC)cc3)oc2c1 (stereo not given)
-3.2%	nt	12%	-1%	COc1ccccc1CNC(=O)[C@@H](NC(=O)C1CCN(C(=O)[C@@H]2CCCN2)CC1)C(C)C
-0.1%	6	8%	6%	Cc1cc(Nc2c(C#N)c(N)nn2C)ccc1F
-2.4%	nt	-8%	nt	CCN(C(=O)CSc1nnc(C)n1-c1ccc(C)cc1)c1c(N)n(Cc2ccccc2)c(=O)[nH]c1=O
-0.8%	-1	-8%	4%	O=C(NCc1ccco1)c1noc2c1CCCC2
-0.9%	nt	2%	nt	C[C@@H]1CN([C@H](C)CO)C(=O)Cc2cc(NC(=O)CCC(F)(F)F)ccc2O[C@@H]1CN(C)S(=O)(=O)c1ccccc1
-0.2%	nt	-11%	-12%	Cc1c(C)c2cc(Cl)c(OC(C)C(=O)NCCN3CCOCC3)cc2oc1=O (stereo not given)

# The list continues:
Rango-impB inh	GLA inh pH 4.5	Rango release inh	miR-21 reporter	compound
-3.9%	nt	2%	nt	CC(NC(=O)CSc1ccc(S(=O)(=O)N2CCOCC2)cn1)c1ccc(Cl)cc1Cl (stereo not given)
4.9%	5	6%	-1%	CC(=O)N1CCc2cc(S(=O)(=O)CCC(=O)NCc3cccs3)ccc21
-2.5%	nt	5%	-1%&-1%	COc1ccc(C(=O)N(Cc2sccc2C)C2CCS(=O)(=O)C2)cc1 (stereo not given)
-4.8%	nt	1%	-2%	Cc1cccc(NC(=O)CCNC(=O)c2ccccc2)c1
0.7%	-1	12%	-1%	Cc1ccc(C(=O)Oc2ccc(-c3nccc(-c4ccccn4)n3)cc2)cc1
-2.0%	-1	-9%	-18%	CC(C)(C)NC(=O)c1nn(Cc2ccccc2)c(=O)c2ccccc12
-3.4%	-2	1%	-19%	CCn1ncc(N(C)N)c(Cl)c1=O
1.8%	-3	4%	0%	COc1cc(C(=O)Oc2ccccc2)ccc1OCc1c(C)noc1C
2.4%	4	8%	-6%	COc1ccc(-c2nc(C#N)c(N3CCC(C(N)=O)CC3)o2)cc1OC
-0.1%	6	27%	-1%	Cc1cc(=O)oc2cc(OCC(=O)NCCCN3CCOCC3)ccc12

# Pulled one by one from above, four records:
Rango-impB inh	GLA inh pH 4.5	Rango release inh	miR-21 reporter	compound
-2.0%	-1	-9%	-18%	CC(C)(C)NC(=O)c1nn(Cc2ccccc2)c(=O)c2ccccc12
1.8%	-3	4%	0%	COc1cc(C(=O)Oc2ccccc2)ccc1OCc1c(C)noc1C
4.9%	5	6%	-1%	CC(=O)N1CCc2cc(S(=O)(=O)CCC(=O)NCc3cccs3)ccc21
-2.5%	nt	5%	-1%&-1%	COc1ccc(C(=O)N(Cc2sccc2C)C2CCS(=O)(=O)C2)cc1 (stereo not given)

# Additional entries.
Rango-impB inh	GLA inh pH 4.5	Rango release inh	miR-21 reporter	compound
-3.5%	nt	13%	-9%	CN(Cc1ccccc1C#N)S(=O)(=O)c1cccs1
5.3%	-9	0%	-5%	COc1ccc(S(=O)(=O)N2CCC(C(=O)Nc3cccc(C(C)=O)c3)CC2)cc1
-0.6%	-4	2%	0%	CSc1ccc(C(=O)C2CCCN(C(=O)c3ccc4c(c3)no[n+]4[O-])C2)cc1 (stereo not given)
nt	1&-1	nt	-1%	N[C@@H](Cc1ccc(O)c(I)c1)C(=O)O
-1.2%	-13	-14%	-7%	Cc1ccccc1C(OCCN(C(C)C)C(C)C)c1ccccc1 (stereo not given)
0.0%	0	-3%	0%	O=C(CC1SC(=NCC2CCCO2)NC1=O)Nc1cc([N+](=O)[O-])ccc1Cl (stereo not given)
-2.0%	nt	-15%	-5%	CC(C)[C@H](NC(=O)C1CCN(S(=O)(=O)c2ccc(F)cc2)CC1)C(=O)N1CCCC1
8.4%	nt	-5%	nt	CCc1ccc(N2C(=O)C(Cl)=C(Nc3ccc(C(=O)N4CCCC4)cc3)C2=O)cc1
-3.6%	nt	14%	nt	O=C(Nc1cc(S(=O)(=O)N2CCOCC2)ccc1Cl)c1cc2ccccc2o1
-0.4%	0	51%	-18%	O=C(O)c1ccc(CSc2ncnc3c2cnn3Cc2ccccc2)cc1

# Carrying on:
Rango-impB inh	GLA inh pH 4.5	Rango release inh	miR-21 reporter	compound
?	nt	?	nt	COc1ccc(-c2ccc3c(c2)S(=O)(=O)c2cccc(C(=O)N4CCN(C5CCCCC5)CC4)c2C3=O)cc1OC
1.2%	0	-5%	7%	CN(C)C=NC(=O)c1cc(C(=O)c2ccc(Cl)cc2Cl)c[nH]1
2.6%	nt	18%	-53%	O=C(c1cnn(-c2ccccc2)c1)c1cc(F)ccc1O
-0.2%	nt	-7%	nt	O=C(CNS(=O)(=O)c1ccc(F)cc1)N1CCCC1
?	-15	?	1%	NC(=O)COc1c(-c2ccco2)oc2ccccc2c1=O
-5.5%	2	0%	-5%	COc1ccccc1NC(=O)N(CCN1CCOCC1)Cc1cc2cc(C)cc(C)c2[nH]c1=O
-4.8%	-11	-3%	-4%	CCOc1ccc(-c2n[nH]c(C)c2-c2ccccn2)c(O)c1
0.5%	1	14%	-13%	CCS(=O)(=O)N1CCN(c2ccc([N+](=O)[O-])c(NCc3ccccc3)c2)CC1
-3.5%	nt	-1%	nt	CCCCN(C(=O)CSc1ncnc2sccc12)c1c(N)n(Cc2ccccc2)c(=O)[nH]c1=O
5.1%	nt	-4%	-1%	COc1cccc(NC(=O)CCN2C(=O)c3cccc([N+](=O)[O-])c3C2=O)c1

# Next part.
Rango-impB inh	GLA inh pH 4.5	Rango release inh	miR-21 reporter	compound
4.5%	7	2%	-11%	O=S(=O)(NCc1ccco1)c1ccc(Cl)nc1
-0.2%	1	-2%	-4%	Cc1cc2cc(CCNC(=O)c3cccc([N+](=O)[O-])c3)c(=O)[nH]c2cc1C
1.6%	-25	-2%	-6%	N#CCCn1cc(/C=N/N=C2\NC(=O)C(CC(=O)O)S2)c(-c2ccc(F)cc2)n1 (stereo not given)
?	?	?	-2%	COCCn1c(N)c(C(=O)OCc2ccccc2)c2nc3ccccc3nc21
-2.1%	nt	0%	nt	O=c1cc(-c2ccc(O)cc2)oc2cc(O)c([C@@H]3O[C@H](CO)[C@@H](O)[C@H](O)[C@H]3O)c(O)c12
-1.9%	-1	4%	8%	COc1ccc(NC(=O)CC(c2ccc(F)cc2)c2ccc(OC(C)C)cc2)cc1 (stereo not given)
-0.7%	1	10%	-2%	O=C(CCCOc1ccc(Cl)cc1)Nc1ccc(N2CCOCC2)cc1
-0.1%	6	19%	-10%	CN(CC(=O)O/N=C(\N)c1cccc([N+](=O)[O-])c1)S(=O)(=O)c1ccccc1
-4.0%	0	8%	-7%	COc1ccc(C(=O)ON=C2C=C(C)C(=O)C(C)=C2)cc1
-1.6%	-7	-7%	0%	CCCCOCP(=O)(CCCC)COCCCC

# Additional records follow.
Rango-impB inh	GLA inh pH 4.5	Rango release inh	miR-21 reporter	compound
4.6%	2	-22%	8%	CCc1cc(OCCCSc2nc(C)cc(=O)[nH]2)ccc1Cl
-0.1%	-5	-2%	-4%	O=C(CN1C(=O)c2ccccc2S1(=O)=O)NCCSC1CCCCC1
0.3%	3	-16%	3%	O=C(OCc1ccco1)c1cccnc1
3.1%	nt	0%	nt	CCCn1c(N)c(C(=O)CN(C)CC(=O)Nc2ccccc2CC)c(=O)[nH]c1=O
0.6%	3	0%	-2%	CCCc1cc(=O)c2c(O)ccc(OC)c2o1
1.3%	nt	5%	-6%	COc1ccc(-c2noc(CN(C)C(=O)c3ccc4c(c3)OCO4)n2)cc1
0.2%	-14	1%	2%	N#C/C(=C/c1cccc(C(F)(F)F)c1)c1nc(CCN2C(=O)c3ccccc3C2=O)cs1
-1.3%	5	-12%	2%	CN(C)/C=C(/C(=O)c1ccc(Cl)c(Cl)c1)c1nnnn1-c1ccccc1
-0.9%	1	12%	-7%	N=C1C(c2ccccc2)=C(O)CN1c1ccc2c(c1)OCO2
-1.3%	-2	4%	-12%	Cc1ccc(NC(=S)NCc2ccc3c(c2)OCO3)cc1

# Continued, starting with the last 7 of the part before.
Rango-impB inh	GLA inh pH 4.5	Rango release inh	miR-21 reporter	compound
3.1%	nt	0%	nt	CCCn1c(N)c(C(=O)CN(C)CC(=O)Nc2ccccc2CC)c(=O)[nH]c1=O
0.6%	3	0%	-2%	CCCc1cc(=O)c2c(O)ccc(OC)c2o1
1.3%	nt	5%	-6%	COc1ccc(-c2noc(CN(C)C(=O)c3ccc4c(c3)OCO4)n2)cc1
0.2%	-14	1%	2%	N#C/C(=C/c1cccc(C(F)(F)F)c1)c1nc(CCN2C(=O)c3ccccc3C2=O)cs1
-1.3%	5	-12%	2%	CN(C)/C=C(/C(=O)c1ccc(Cl)c(Cl)c1)c1nnnn1-c1ccccc1
-0.9%	1	12%	-7%	N=C1C(c2ccccc2)=C(O)CN1c1ccc2c(c1)OCO2
-1.3%	-2	4%	-12%	Cc1ccc(NC(=S)NCc2ccc3c(c2)OCO3)cc1
0.8%	nt	-4%	0%	Cc1ccc(NC(=O)c2cccc(C(=O)Nc3ccc(C)c(C)c3)n2)cc1C
2.5%	nt	0%	1%	COc1cc2c(cc1OC)CN(C(=O)C1CCC(=O)N(CCCN3CCOCC3)C1)CC2 (stereo not given)
?	-3	?	-17%	CCOc1ccc2nc3sc(C(=O)N4CCOCC4)c(N)c3cc2c1
?	-1	2%	-5%	C=CCc1ccc(OCCOCCOc2cccc3cccnc23)c(OC)c1
-0.7%	nt	-14%	0%	COc1ccc(N2CCN(C(=O)Cc3ccc(Cl)cc3)CC2)cc1
3.3%	nt	-11%	2%	CCC1COCCS(=O)(=O)N1Cc1cccc(Cl)c1 (stereo not given)
2.0%	nt	11%	-58%	COc1ccc(-c2csc(-n3ncc(C(=O)O)c3C(F)(F)F)n2)cc1
?	nt	-7%	0%	Cc1ccc(S(=O)(=O)CC(=O)c2cc3cccc(C)c3oc2=O)cc1
3.4%	5	1%	-2%	O=C(CSCc1c(Cl)cccc1Cl)Nc1ccccc1C(=O)N1CCOCC1
-2.7%	-6	-7%	-7%	COc1ccccc1NC(=O)N1CCn2c(nc3ccccc32)C1

# Next section
Rango-impB inh	GLA inh pH 4.5	Rango release inh	miR-21 reporter	compound
-2.4%	-8	3%	-1%	Oc1oc(-c2ccccc2)nc1/C=N/c1ccccn1
?	nt	?	nt	COCCCn1c(=N)c(C(N)=S)cc2c(=O)n3cccc(C)c3nc21
4.7%	5	1%	-1%	Cc1ccc(S(=O)(=O)N2CCN(c3ccc(S(=O)(=O)N4CCOCC4)cn3)CC2)cc1
1.3%	2	7%	-2%	COc1ncccc1C(=O)N1CCCC(C(=O)c2cccc(OC(C)C)c2)C1 (stereo not given)
1.5%	nt	3%	-8%	COc1ccc(C(=O)Nc2ccc(NC(=O)c3ccccc3F)cn2)cc1
-1.0%	nt	-6%	-1%	Cc1nn(CC(=O)N2CCN(c3ccccc3)CC2)c(C)c1[N+](=O)[O-]
0.0%	-2	-1%	4%	CC(C)n1cc(CN2CCCC(CO)(Cc3cccc(Cl)c3)C2)cn1 (stereo not given)
-0.5%	0	-17%	-27%	CCN(CC)C(=O)CCCc1c[nH]c2ccccc12
-4.7%	nt	12%	-1%	CCOC(=O)c1ccc(NC(=O)c2ccc3c(c2)C(=O)N(Cc2cccnc2)C3=O)cc1
2.1%	nt	-8%	9%	CCOC(=O)c1cnc2ccc(C)cc2c1N(C)Cc1ccccc1

# (list continues)
Rango-impB inh	GLA inh pH 4.5	Rango release inh	miR-21 reporter	compound
-5.0%	-19	-5%	-7%	Cn1c(=O)c2c(nc(OCc3ccc4c(c3)OCO4)n2Cc2ccccc2Cl)n(C)c1=O
9.5%	-7	6%	-8%	Cc1ccc(N2CC(C(=O)NCc3cccs3)CC2=O)cc1 (stereo not given)
-0.1%	nt	1%	-3%	Cc1nn(C)c(C(=O)NNC(=S)NCc2ccccc2)c1Cl
?	3	?	-5%	OCC(CO)(CO)N=Cc1cc(Br)ccc1O
